# Screening results as filed in PubChem.
# AID923 – qHTS Assay for Allosteric/Competitive Inhibitors of Caspase-1: Spectroscopic Profiling in AFC Spectral Region | compound fluorescence, AFC spectral region (405/520 nm); almost no hit is shown here | Potency, µM (top dose mostly 57.5 µM), without a hit: top-dose fluorescence increase, most hits filed as activators | 1.1% of 75,000 active | AID 923, 2007; active = well fitted activation curve with a large enough effect; inconclusive = small, poorly fitted or top-dose-only effect;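 note: potency is the fitted concentration of half-maximal effect; 0% is about no effect; scaled to a free AFC standard on each plate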
#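 Compound autofluorescence profiled at 405 nm ex/520 nm em during kinetic caspase 1 run (50 nM enzyme, 5 uM Ac-WEHD-AFC, HEPES pH 7.5, 10 mM DTT). Titration up to 57 uM; baseline from regression intercept, normalized to AFC standard curve.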
# TSHR ag – agonists of human thyroid stimulating hormone receptor. P16473. HEK293-CNG-TSHR cells (CNG channel as cAMP sensor), membrane potential dye, cAMP. Potency, µM (titrated, usually from 57.1 µM), without a hit: at the top dose activation, hits mostly activators. 0.48% of 73,000 active. AID 926; active = well fitted activation curve of enough size with the parental cells flat; inconclusive = any curve in the parental cells; inactive = parental cells flat and receptor cells flat or falling; note: potency is the fitted concentration of half-maximal effect; % of control where 0% means no effect; weak receptor curves with flat parental cells got no call and are not listed
# Target sequence (P16473 whole entry, looked up): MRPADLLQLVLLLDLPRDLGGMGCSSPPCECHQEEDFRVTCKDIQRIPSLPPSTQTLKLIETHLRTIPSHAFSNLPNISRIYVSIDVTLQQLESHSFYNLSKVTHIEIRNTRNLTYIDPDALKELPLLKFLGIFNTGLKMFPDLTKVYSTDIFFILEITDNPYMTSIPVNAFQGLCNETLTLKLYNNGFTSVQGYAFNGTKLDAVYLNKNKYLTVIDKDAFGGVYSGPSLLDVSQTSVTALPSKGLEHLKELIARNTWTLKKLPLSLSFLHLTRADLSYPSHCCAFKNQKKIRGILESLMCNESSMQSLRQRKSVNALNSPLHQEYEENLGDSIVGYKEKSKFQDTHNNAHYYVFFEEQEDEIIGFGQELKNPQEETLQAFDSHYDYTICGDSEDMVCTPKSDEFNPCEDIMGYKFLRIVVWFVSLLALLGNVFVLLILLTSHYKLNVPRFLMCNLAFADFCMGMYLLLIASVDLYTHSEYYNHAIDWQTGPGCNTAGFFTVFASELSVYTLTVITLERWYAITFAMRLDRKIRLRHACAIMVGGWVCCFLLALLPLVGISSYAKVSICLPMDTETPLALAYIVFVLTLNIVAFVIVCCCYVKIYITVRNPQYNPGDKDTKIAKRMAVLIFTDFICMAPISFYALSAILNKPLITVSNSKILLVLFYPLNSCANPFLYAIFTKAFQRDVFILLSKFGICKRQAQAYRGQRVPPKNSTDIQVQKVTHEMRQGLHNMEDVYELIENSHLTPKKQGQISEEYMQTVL
#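 HEK 293 cells stably expressing TSHR and a cAMP-gated CNG channel; parental CNG-only cells as counterscreen. Cells preloaded 60 min with membrane potential dye plus 100 uM RO 20-1724, then compound 30 min; fluorescence read at 590 nm.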
# Resorufin fluor – resorufin region autofluorescence; AID 588; Compound fluorescence, resorufin region 547/598 nm, buffer; hits give high values; 0.04% of 59,000 active; max dye-equivalent concentration, M; active = above 10 nM dye equivalent; inconclusive = 1 to 10 nM; inactive = 1 nM or less; a few of its hits are not listed in these tables; note: highest value over a series up to 38 µM
#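 Read-out: intrinsic compound fluorescence at ex 547/em 598 nm after 15 min at RT in pH 8.0 Tris (100 mM). Values expressed as resorufin-equivalent concentration from per-plate standard series.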
# A488 fluor – compound fluoresces in the A488 spectral region; 0.1% of 59,000 active; compound autofluorescence, A488 spectral region, dye equivalency; hits give high values; max dye equivalency, M; active = above 10 nM dye equivalent; inconclusive = 1 to 10 nM; inactive = 1 nM or less; about half of its hits are not listed in these tables;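 note: highest value over a series up to 38 µM; compound alone in buffer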
#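 Read-out: relative fluorescence at 480/540 nm, expressed as Alexa 488 dye-equivalent concentration from a six-point A488 standard included per plate. Conditions: 100 mM Tris, pH 8.0; 15 min incubation, room temperature.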
# A647 autofl – A647 region autofluorescence; Compound fluorescence, A647 channel (570/671 nm), Tris buffer; max dye-equivalent concentration, M; 59,000 tested, under 10 active; AID 592; active means above 1 µM dye equivalent; inconclusive means 0.1 to 1 µM; inactive means 0.1 µM or less;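 note: values scaled relative to a standard on each plate; highest value over a series up to 38 µM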
#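 Spectral profiling of library compounds in pH 8.0 Tris: 15 min room-temperature incubation, single ex/em pair (570/671 nm), response normalized to Alexa 647 equivalents.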
# * hit, by the source's call; i = inactive; u = inconclusive; x = no result given; [ ] = dose if it differs, or a comment. The list is partial, so the mix of outcomes need not match the whole.
SMILES,AID923,TSHR ag,Resorufin fluor,A488 fluor,A647 autofl
COc1cc(C(=O)NCC(=O)n2nc(C)cc2C)cc(OC)c1OC,x,x,i,i,8.43e-08
CCOc1ccc(N=Cc2c(O)cc(C)oc2=O)cc1,2.9%,u,x,x,x
O=C(C1CCC1)N1CCc2cc(S(=O)(=O)N3CCN(c4ccccn4)CC3)ccc21,0.6%,x,i,i,2.29e-08
CCOc1ccc(OCC)c(NC(=O)C2CCCN(S(=O)(=O)c3c(C)noc3C)C2)c1 (stereo not drawn),-0.5%,4.2%,i,i,1.2e-09
CC(C)NC(=O)N1CC2(CCN(S(=O)(=O)c3ccccc3)CC2)C1,1.1%,-4.1%,i,i,3.3e-09
CCCN(Cc1cc2cccc(C)c2[nH]c1=O)C(=O)c1cccc(OC)c1,-0.4%,23.8%,i,i,2.6e-09
CS(=O)(=O)N1CCN(C(=O)NC23CC4CC(CC(C4)C2)C3)CC1,-3.3%,5.2%,i,i,2.97e-08
CCn1nc(C)c(Oc2ccccc2O)c1C,0.6%,21.3%,i,i,3.66e-08
Fc1c(F)c(F)c(CSc2nc3ccccc3[nH]2)c(F)c1F,-0.7%,u,x,x,x
Cn1c(=O)c2c(SCC(=O)N3CCC(Cc4ccccc4)CC3)nc(C3CC3)nc2n(C)c1=O,2.2%,4.5%,x,x,x
O=C(CN1CCN(CC(=O)c2ccc(F)cc2)CC1)Nc1ccccc1Cl,3.4%,u,i,i,1e-09
CCOC(=O)CSc1nnc(Cc2ccccc2)n1CC1CCCO1 (stereo not drawn),0.9%,10.0%,i,i,2.3e-09
Cc1nc(CCNC(=O)Cc2ccccc2)cs1,-0.1%,0.4%[11.4 µM],i,i,1e-09
Cc1cc(-c2ccco2)n(-c2ccccc2)n1,-0.2%,11.3%,i,i,2.9e-09
COc1cc2c(cc1OC)C(c1ccc(N(C)C)cc1)CC(=O)N2 (stereo not drawn),-1.5%,9.1%,i,i,9.9e-09
Cc1ccc(CNC(=O)[C@H](C)[C@H]2C[C@]2(C)[C@H](NC(=O)OCc2ccccc2)c2ccccc2)c(F)c1F,1.8%,u,x,x,x
CCCCOC(=O)C1=C(C)Nc2ncnn2C1c1ccc(OCC)c(OC)c1 (stereo not drawn),0.7%,5.1%,i,i,3.8e-09
CN1CCN(C(=O)c2ccc3c(=O)n(Cc4ccc(Cl)cc4)c(=S)[nH]c3c2)CC1,-1.0%,-15.2%,i,i,6.3e-09
COc1ccccc1CNC(=O)CCN1C(=O)COc2ccccc21,0.1%,2.9%,i,i,1e-09
N#CC1=C(N)Oc2n[nH]c(CSc3ccccc3)c2C12C(=O)Nc1ccccc12 (stereo not drawn),-0.1%,-5.3%,i,i,9.7e-09
COC(=O)c1ccc(Cl)c(NC(=O)CN2CCN(Cc3ccccc3)CC2)c1,0.2%,23.2%,i,i,1.81e-08
Cc1cc(NC(=O)C2(c3ccccc3)CCCC2)no1,1.5%,6.7%,i,i,2.57e-08
CCC(C)C(NC(=O)OC(C)(C)C)C(=O)NC(C(=O)N1CCCC1C(N)=O)C(C)CC (stereo not drawn),1.2%,-8.5%,i,i,3.8e-09
CCOC(=O)c1cnc(SCC(=O)Nc2cc(C(F)(F)F)ccc2N2CCOCC2)nc1N,-2.2%,20.1%,i,i,8.09e-08
Cc1ccc(C(=O)COC(=O)c2cnccn2)cc1,-2.9%,u,x,x,x
O=C(Nc1ccc(Cl)cc1)C(c1ccccc1)N(CCO)CCO (stereo not drawn),-1.0%,9.2%,i,i,6.65e-08
CCCCNC(=O)C(c1ccc(OCC(=O)OC)c(C(=O)OC)c1)N(CCc1ccccc1)C(=O)CCCCCN1C(=O)NC(c2ccc(-c3ccccc3)cc2)C(C(=O)OCc2ccccc2)=C1C (stereo not drawn),1.6%,-4.2%,x,x,x
CCCCCC1CC(=O)N(Cc2ccccc2)C(=O)N1 (stereo not drawn),0.4%,-0.9%,i,i,1e-09
C[C@@H](CN1CCC(Cc2ccccc2)CC1)[C@H](O)c1ccc(O)cc1,-0.8%,11.2%,i,i,5.6e-09
Cc1ccnc(-n2c(CCN3C(=O)c4ccccc4C3=O)nc3ccccc3c2=O)c1,-0.3%,-16.0%,i,i,6.4e-09
CO[C@H]1COC(=O)[C@@H](C)NC(=O)C/C=C\[C@@H](C)[C@H](OC)COC(=O)C/C=C\[C@@H]1C,0.0%[11.5 µM],-73.4%[inhibitor][11.4 µM],x,x,x
CC(C)n1c(NCc2cc(Cl)ccc2O)nc2ccccc21,-1.9%,16.0%,x,x,x
Cc1ccc(-n2c(SCC(=O)N3CCOCC3)nnc2-c2ccncc2)cc1,-0.8%,0.5%,i,i,1.94e-08
Cc1cc(OCC(=O)Nc2ccc3c(c2)OCCO3)ccc1Cl,-0.2%,u,i,i,1e-09
COc1ccccc1NC(=O)c1cccs1,2.2%,2.0%,x,x,x
COCC(=O)N1CCC[C@@]2(CCN(c3ccccn3)C2)C1,-0.1%,2.0%,i,i,3.7e-09
CC(NC(=O)c1cc2ccccc2o1)c1cccs1 (stereo not drawn),0.0%,6.3%,i,i,1.1e-09
Cc1ccccc1-n1nc(C)c2cc(C(=O)N3CCN(S(=O)(=O)c4ccc(F)cc4)CC3)sc21,-0.2%,15.8µM*,i,i,2.08e-08
CCOC(=O)N1CCC(N2CC34C=CC(O3)C(C(=O)Nc3ccc(C)cc3)C4C2=O)CC1 (stereo not drawn),-1.5%,5.9%,x,x,x
O=C(O)CCCCCNc1nc(=S)[nH]c2ccccc12,3.3%,-4.0%,i,i,1e-09

# Grouped by structure, those above containing a thiophene ring, fused or not
SMILES,AID923,TSHR ag,Resorufin fluor,A488 fluor,A647 autofl
COc1ccccc1NC(=O)c1cccs1,2.2%,2.0%,x,x,x
CC(NC(=O)c1cc2ccccc2o1)c1cccs1 (stereo not drawn),0.0%,6.3%,i,i,1.1e-09
Cc1ccccc1-n1nc(C)c2cc(C(=O)N3CCN(S(=O)(=O)c4ccc(F)cc4)CC3)sc21,-0.2%,15.8µM*,i,i,2.08e-08

# More structures follow.
SMILES,AID923,TSHR ag,Resorufin fluor,A488 fluor,A647 autofl
Cc1cc2c(=O)n(CC(=O)N3CCN(c4ccccc4)CC3)cnc2s1,-0.1%,0.6%,i,i,5.3e-09
CCn1cc(C(=O)NC2CC3CCC2C3)c(=O)c2ccc(C)nc21 (stereo not drawn),1.3%,6.6%,i,i,5.4e-09
CCNS(=O)(=O)c1ccc(NC(=O)Nc2cccc(C(F)(F)F)c2)cc1,0.8%,-19.8%,i,i,3.93e-08
COC(=O)[C@@]1(Cc2ccc(OC)cc2)[C@H]2c3cc(C(=O)N4CCCC4)n(CCO)c3C[C@H]2CN1C(=O)c1ccccc1,2.1%,1.5%,x,x,x
O=C(Nc1ccccc1N1CCCC1)c1cc2ccccc2o1,0.7%,0.8%,i,i,1e-09
O=C(NCC(=O)N(c1cccnc1)C(C(=O)NCc1ccco1)c1ccccc1)c1ccco1 (stereo not drawn),0.7%,4.1%,i,i,1e-09
Nc1ccc(S(=O)(=O)NCCS(=O)(=O)O)cc1,4.9%[11.5 µM],-1.5%[11.4 µM],i,i,1e-09
O=C(C(NS(=O)(=O)c1cccs1)c1ccccc1)N1CCN(c2ccccc2)CC1 (stereo not drawn),0.7%,7.6%,i,i,1e-09
COc1ccc(S(=O)(=O)Cc2ccc(C(=O)NCc3cccs3)o2)cc1,-0.6%,1.6%,x,x,x
O=C(c1cc(-c2cccs2)on1)N1CCOCC1,-0.2%,1.5%,i,i,3.5e-09
Cc1onc(-c2ccccc2)c1C(=O)Nc1nnc(COc2ccc(Cl)cc2)s1,0.8%,u,i,i,1e-09
CCOC(=O)Nc1nnc(-c2ccc(OC)c(OC)c2)s1,2.9%,-0.8%,i,i,2.82e-08
Cc1cc(C(F)(F)F)c2c(=O)[nH]c(=O)n(Cc3ccccc3)c2n1,-0.4%,u,i,i,3.16e-08
O=C(O)C(Cc1ccccc1)n1cccc1 (stereo not drawn),0.7%,3.9%,i,i,3.12e-08
Cc1cc2ccccc2n1CCNC(=O)C1CC1,1.1%,u,x,x,x
O=S(=O)(NCc1ccccc1Cl)c1cnc[nH]1,0.1%,0.5%,i,i,1e-09
O=C(c1cccc(F)c1)N1CCC2(CC1)CCN(c1ccncc1)CC2,0.9%,u,i,i,2.37e-08
COC(=O)C1C(=O)C2=C(CC1C)NC(C)=C(C(=O)OCCOc1ccccc1)C2c1ccc(C)o1 (stereo not drawn),6.8%,13.2%[11.4 µM],i,i,2.67e-08
NC(=O)COc1ccc(=O)n(-c2ccccc2)n1,1.3%,-3.7%,x,x,x
COC(=O)C1=C(CN2CCSCC2)NC(=O)NC1c1cc(C)ccc1C (stereo not drawn),0.3%,1.6%,i,i,1e-09

# Of the compounds above, seven have an NH in an aromatic ring.
SMILES,AID923,TSHR ag,Resorufin fluor,A488 fluor,A647 autofl
CCCN(Cc1cc2cccc(C)c2[nH]c1=O)C(=O)c1cccc(OC)c1,-0.4%,23.8%,i,i,2.6e-09
Fc1c(F)c(F)c(CSc2nc3ccccc3[nH]2)c(F)c1F,-0.7%,u,x,x,x
CN1CCN(C(=O)c2ccc3c(=O)n(Cc4ccc(Cl)cc4)c(=S)[nH]c3c2)CC1,-1.0%,-15.2%,i,i,6.3e-09
N#CC1=C(N)Oc2n[nH]c(CSc3ccccc3)c2C12C(=O)Nc1ccccc12 (stereo not drawn),-0.1%,-5.3%,i,i,9.7e-09
O=C(O)CCCCCNc1nc(=S)[nH]c2ccccc12,3.3%,-4.0%,i,i,1e-09
Cc1cc(C(F)(F)F)c2c(=O)[nH]c(=O)n(Cc3ccccc3)c2n1,-0.4%,u,i,i,3.16e-08
O=S(=O)(NCc1ccccc1Cl)c1cnc[nH]1,0.1%,0.5%,i,i,1e-09

# Later entries
SMILES,AID923,TSHR ag,Resorufin fluor,A488 fluor,A647 autofl
O=C(Cn1cnc2ccccc21)OCC(=O)N1CCCc2ccccc21,0.3%,16.8%,i,i,1e-09
COC(=O)c1ccccc1NC(=O)COc1ccc(S(=O)(=O)N2CCCC2)cc1C,-0.4%,u,i,i,3.58e-08
Cn1nc(SCC(=O)O)sc1=S,2.2%,2.2%,i,i,2.59e-08
COc1cccc(Nc2ncccc2C(=O)NCc2ccccc2)c1,5.2%,2.4%,i,i,1e-09
COc1ccc(N(CC(=O)Nc2cccc(N(C)S(C)(=O)=O)c2)S(C)(=O)=O)cc1OC,0.2%,1.1%,i,i,2.03e-08
COC(=O)c1ccc(C(=O)OC)nc1,-2.2%,9.7%,i,i,1.3e-09
CCC[C@@H]1C[C@@]1(CCC)C(NP(=O)(c1ccccc1)c1ccccc1)c1ccc(Cl)cc1 (stereo partly drawn),-1.5%,u,x,x,x
CCCCOc1ccc(-c2nnn(CCC(=O)N3CCOCC3)n2)cc1,0.6%,12.8%,i,i,1.5e-09
N#Cc1ccc(CSc2nnc(-c3ccccn3)n2-c2ccc(Cl)cc2)cc1,0.3%,u,i,i,2.1e-09
CCC(=O)c1cn(CC(=O)NCC2CCCO2)c2ccccc12 (stereo not drawn),0.0%,18.0%,i,i,2.39e-08
CCOc1ccccc1NC(=O)C1CCN(S(=O)(=O)c2c(C)nn(C)c2C)CC1,1.4%,-4.2%,x,x,x
CCCCn1c(=N)n(CC(=O)C(C)(C)C)c2ccccc21,0.7%,11.9%,i,i,1e-09
COc1cccc(-n2c(COc3ccc(C)cc3)nnc2SCC(N)=O)c1,0.6%,0.0%,i,i,7.14e-08
CCC(CC)c1nnc(NC(=O)c2c(-c3ccccc3)noc2C)s1,2.2%,u,x,x,x
O=C(COC(=O)CCC(=O)c1ccc(F)cc1)Nc1ccc(N2CCOCC2)cc1,-2.2%,-1.6%,i,i,1.6e-09
COc1ccc(C2NC(=O)NC(O)(C(F)(F)F)C2C(=O)c2ccc(C)cc2)cc1 (stereo not drawn),1.5%,1.6%[11.4 µM],x,x,x
COc1ccc(N2C(=O)C3CCCN3C2c2cccc(OC)c2OC)cc1 (stereo not drawn),0.1%,5.9%,x,x,x
